CtBP-E1A inh = qHTS Assay for Inhibitors of the CtBP/E1A Interaction. CtBP / adenovirus E1A interaction (AlphaScreen). AlphaScreen GST-E1A/His-CtBP binding, 1536-well; hits give low values; control for the full effect not named in the record. activity change, % (test concentration not listed). AID 651724, 2012. 0.49% of 340,000 active; in the data active means activity change below about -65%; inconclusive means about -30% to -65%; inactive means above about -30%; also: % is scaled to controls: 0 for no effect and ±100 for the full control effect; compound concentration not given in the record
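AlphaScreen with 125 nM GST-E1A and 125 nM His-CtBP (5X stocks) in Tris pH 8.0, 300 mM NaCl, BSA, Tween 20, TCEP. Compounds preincubated 2 h at 37 deg C, then glutathione donor/nickel acceptor beads added for 1 h at 37 deg C in dark.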
gsp antag = qHTS for Antagonists of gsp, the Etiologic Mutation Responsible for Fibrous Dysplasia/McCune-Albright Syndrome: qHTS | gsp-mutant cells, cAMP HTRF, 30 min; control for the full effect not named in the record | AID 624288, 2012 | 0.4% of 340,000 active | Potency, µM (series often up to 76.9 µM), inactives show at the top dose activity change, negative = inhibition, actives largely listed as inhibitors; active = falling curve of any shape with a large fitted effect; inconclusive = falling curve, mostly with a smaller effect; inactive = flat or rising curve; cell line not stated here;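 also: intracellular cAMP measured with PDE inhibitor Ro 20-1724 present during compound exposure; potency is read from the fitted curve at half-maximal effect; % is scaled to controls: 0 for no effect and ±100 for the full control effect; nearly all actives have a fitted effect of over 65% in size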
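Cells in G418 medium, seeded 16-24 h, 37C; buffer exchange to DPBS + 1 mM CaCl2, 0.5 mM MgCl2, 0.05% BSA; cpds in DMSO + […] (300 uM stock), 30 min 37C; HTRF cAMP detection.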
TRPV1 PAM = HTS Assay for Compounds that Act as Potentiators of the Vanilloid Receptor 1. TRPV1-expressing cells, Fluo-8 calcium influx, capsaicin EC20 potentiation; host cell line not named in the record; control for the full effect not named in the record. potentiation, % at 8.33 µM. 0.02% of 320,000 active. AID 540277, 2011; active means potentiation above 80%; inconclusive means 30% to 80%; inactive means below 30%; also: 0% is about no effect
Target sequence (Q8NER1 whole entry, looked up): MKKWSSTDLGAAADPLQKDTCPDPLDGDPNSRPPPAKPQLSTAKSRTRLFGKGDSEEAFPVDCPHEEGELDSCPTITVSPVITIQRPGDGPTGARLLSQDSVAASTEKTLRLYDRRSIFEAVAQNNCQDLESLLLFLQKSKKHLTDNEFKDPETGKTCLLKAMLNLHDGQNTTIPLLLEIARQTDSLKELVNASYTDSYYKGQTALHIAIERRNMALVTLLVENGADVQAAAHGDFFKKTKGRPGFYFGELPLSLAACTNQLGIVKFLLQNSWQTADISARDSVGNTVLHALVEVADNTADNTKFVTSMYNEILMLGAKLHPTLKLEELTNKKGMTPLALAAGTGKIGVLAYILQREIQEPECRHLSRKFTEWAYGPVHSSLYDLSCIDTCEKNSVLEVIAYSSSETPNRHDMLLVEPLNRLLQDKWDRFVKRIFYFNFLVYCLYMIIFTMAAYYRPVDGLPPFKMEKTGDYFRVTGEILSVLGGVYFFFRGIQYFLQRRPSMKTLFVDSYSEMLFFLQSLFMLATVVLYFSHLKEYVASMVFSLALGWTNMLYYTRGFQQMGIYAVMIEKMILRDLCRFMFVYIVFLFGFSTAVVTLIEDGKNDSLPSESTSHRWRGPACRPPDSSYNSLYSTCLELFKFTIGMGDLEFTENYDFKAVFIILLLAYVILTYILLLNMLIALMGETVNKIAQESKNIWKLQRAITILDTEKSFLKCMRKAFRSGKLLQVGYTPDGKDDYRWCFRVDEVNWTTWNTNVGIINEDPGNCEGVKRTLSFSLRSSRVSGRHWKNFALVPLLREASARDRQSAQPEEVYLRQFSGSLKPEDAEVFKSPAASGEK
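Cells expressing TRPV1 were dye-loaded with Fluo-8 and read kinetically: 10 s baseline, 3 min after compound (agonist portion), then 2 min after EC20 capsaicin (allosteric enhancer portion). Calcium-bound dye fluorescence at 480/520 nm.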
Menin MLL FP FL = qHTS Assay for Inhibitors Targeting the Menin-MLL Interaction in MLL Related Leukemias: Competition With Fluorescein Labeled MLL-derived Peptide; Fluorescence polarization, fluorescein-MLL peptide displacement from menin; FP activity change, % at 61.4 µM; 290,000 tested, under 10 active; inconclusive = falling polarisation curve, or a change in total fluorescence; inactive = total fluorescence flat and polarisation flat or rising; no compound was filed as active; the % refers to the polarisation; negative = inhibition;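 also: % of control where 0% means no effect; inhibitors lower the polarisation; unlabelled MLL peptide was the positive control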
gsp agonist = qHTS for Agonist of gsp, the Etiologic Mutation Responsible for Fibrous Dysplasia/McCune-Albright Syndrome: qHTS; 0.13% of 340,000 active; AID 624287, 2012; Potency, µM (titrated, usually from 76.9 µM), inactives show at the top dose activation (cAMP increase), usual class: activators; gsp mutant cells, cAMP HTRF, 30 min; control for the full effect not named in the record; active = well fitted activation curve with a large enough effect; inconclusive = small, poorly fitted or top-dose-only effect, or another doubt; inactive = no such curve, though single readings can be large or run the other way; cell line not stated here;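 also: phosphodiesterase inhibitor Ro 20-1724 added with compounds to block cAMP breakdown; potency is read from the fitted curve at half-maximal effect; nearly all actives have a fitted effect of over 60% in size; about a fifth of the inactives were tested at one dose only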
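Cells stably selected in G418 were plated at 2000/well, grown 16-24 hr, then given compounds in DMSO with the PDE inhibitor […] (300 uM solution added) for 30 min at 37C; cAMP was read by HTRF.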
Sfp inh = qHTS Assay for Inhibitors of Bacillus subtilis Sfp phosphopantetheinyl transferase (PPTase); 3.5% of 310,000 active; Potency, µM, for the others: max response, negative = inhibition, actives largely listed as inhibitors; 4'-phosphopantetheinyl transferase ffp (Bacillus subtilis), Q9F4F7; Biochemical Sfp PPTase activity, qHTS; active = well fitted inhibition curve with a large enough effect; inconclusive = small, poorly fitted or top-dose-only effect, or another doubt; inactive = no such curve, though single readings can be large or run the other way;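 also: the enzyme is Sfp with the accession as filed and its product quenches rhodamine fluorescence; potency is read from the fitted curve at half-maximal effect; 0% = enzyme reaction without inhibitor and -100% = no enzyme wells; top concentration of the series not given in the record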
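Fluorescence-quenching assay: 15 nM Sfp-PPTase preincubated 15 min at room temperature with compound, then 5 uM rhodamine-CoA and 12.5 uM BHQ-2-labelled YbbR peptide added. Fluorescence (ex 525/em 598 nm) read at start and after 30 min; difference gives rate.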
ClpP mod = qHTS Assay for Activators of ClpP; ATP-dependent Clp protease proteolytic subunit (Bacillus subtilis (strain 168)), P80244; purified B. subtilis ClpP, FRET peptide cleavage, 20 min; Potency, µM (highest dose often 57.5 µM), without a hit: top-dose activity change, negative = active; 1.9% of 340,000 active; AID 651965, 2013; active = well fitted falling curve with a large enough effect; inconclusive = small, poorly fitted or top-dose-only effect; inactive = no such curve, though single readings can be large or run the other way; also: potency is read from the fitted curve at half-maximal effect; the source files actives as falling curves though it sought activators and does not explain the sign; nearly all actives have a fitted effect of over 65% in size; many hits overshoot -100%
Target sequence (P80244 whole entry, looked up): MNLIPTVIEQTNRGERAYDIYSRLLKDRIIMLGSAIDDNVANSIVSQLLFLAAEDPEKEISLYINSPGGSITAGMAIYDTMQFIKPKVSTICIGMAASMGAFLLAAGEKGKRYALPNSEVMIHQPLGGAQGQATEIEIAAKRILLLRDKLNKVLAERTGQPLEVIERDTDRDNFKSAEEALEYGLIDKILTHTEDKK
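Buffer: 100 mM Tris/HCl pH8, 100 mM KCl, 0.05% low protease BSA, 2.5% glycerol, 0.01% Tween-20. ClpP 10 microg/mL final; 20 min RT; delta FRET normalized to ADEP and DMSO controls.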
Starred values were filed as active, the others as inactive; i = inactive; ? = inconclusive; . = no result given; & = joins results of further samples; [ ] = remark or other dose. Rows were taken by chance; any-hit rate near 5.3%.

The line under a structure holds: CtBP-E1A inh	gsp antag	TRPV1 PAM	Menin MLL FP FL	gsp agonist	Sfp inh	ClpP mod
- C[C@H]1CN([C@@H](C)CO)C(=O)Cc2cc(NC(=O)CCC(F)(F)F)ccc2O[C@H]1CN(C)S(C)(=O)=O
 : 3	-7%	.	.	?	.	0.6%
- Cn1cccc1/C=N/NC(=O)c1ccc(OC(F)(F)C(F)F)cc1
 : -1	-16%	-2	-0.7	-9%	-7%	-2.4%
- NNC(=O)C(Cc1ccccc1)NC(=O)OCc1ccccc1 (stereo not given)
 : -17	7%	-8	-0.1	12%[15.4 µM]	-5%	.
- Cc1ccc2oc(=O)cc(/C=C/c3ccccc3)c2c1
 : -2	-26%	-15	1.6	-1%	-11%	-29%
- O=c1c(C=NCCCn2ccnc2)c(-c2ccccc2)[nH]n1-c1nc2ccccc2s1
 : 8	-11%	?	2.5	9%	13%	0.3%
- CCOC(=O)C1=C(COC(=O)/C=C/c2ccccc2)NC(=O)NC1C (stereo not given)
 : -10	7%	6	.	-51%[inhibitor]	.	0.7%
- COc1ccc(C(=O)N[C@H](C(=O)OCCCOC(=O)[C@@H](NC(=O)c2ccc(OC)cc2)C(C)C)C(C)C)cc1
 : -5	?	.	.	31%	.	11%
- O=C(CSc1cccc2cccnc12)Nc1cccc(S(=O)(=O)N2CCOCC2)c1
 : 2	.	10	0.5	-2%[15.4 µM]	6%	.
- COc1ccc(N)cc1S(=O)(=O)Nc1ccccc1Cl
 : 0	4%	-8	-0.4	12%[15.4 µM]	6%	.
- COc1cccc(NC(=O)C(=O)NCCC2CCCCN2S(=O)(=O)c2ccccc2)c1 (stereo not given)
 : -18	1%	5	.	0%[15.4 µM]	.	-1.1%
- Cc1ccnn1CCC(=O)N1CCCC(CCC(=O)NCc2ccccc2F)C1 (stereo not given)
 : -11	-9%	5	-2.3	-7%[15.4 µM]	9%	-2.5%
- O=C(COC(=O)c1cccc(S(=O)(=O)N2CCCC2)c1)Nc1cccc(Br)c1
 : 2	.	.	.	-9%	.	-1.9%
- O=C(Nc1nc2ccc(C(=O)N3CCCCC3)cc2s1)C1CCCCC1
 : -3	20%	2	4.0	3%[15.4 µM]	12%	.
- CC(C)CC(/C(O)=C(\C#N)c1nc2ccccc2[nH]1)N1C(=O)c2ccccc2C1=O (stereo not given)
 : -6	-14%	-21	5.5	?	15%	-1.6%
- Cc1onc(-c2ccccc2Cl)c1C(=O)N1CCOC12CCCCC2
 : 4	3%	-4	0.3	?	23%	.
- COc1ccc2c3c(c(=O)oc2c1)C1O[C@](CCCCN2C(=O)c4ccccc4C2=O)(Cc2cc(OC)c(OC)cc21)O3
 : .	.	i	0.9[11.7 µM]	.	-11%	.
- CCN1C(=O)N[C@H](c2ccccc2)C(C(C)=O)=C1C
 : 7	-4%	.	-3.0[11.7 µM]	5%	-2%	0.7%
- Clc1ccc(N2CCN(c3nc4nonc4nc3N3CCSCC3)CC2)nc1
 : -3	4%	28	21	-13%[15.4 µM]	10%	.
- CCOc1ccccc1OCCCC(=O)NNC(=O)c1cc(C)oc1C
 : -22	4%	7	.	?	.	-0.4%
- O=C(N/N=C/C=C/c1cccc([N+](=O)[O-])c1)c1ccncc1
 : 4	?	-7	-1.8	1%[15.4 µM]	-1%	0.4%

Continued; the last 2 above are carried over.
Letter code – A = CtBP-E1A inh; B = gsp antag; C = TRPV1 PAM; D = Menin MLL FP FL; E = gsp agonist; F = Sfp inh; G = ClpP mod
CCOc1ccccc1OCCCC(=O)NNC(=O)c1cc(C)oc1C
  A: -22	B: 4%	C: 7	D: .	E: ?	F: .	G: -0.4%
O=C(N/N=C/C=C/c1cccc([N+](=O)[O-])c1)c1ccncc1
  A: 4	B: ?	C: -7	D: -1.8	E: 1%[15.4 µM]	F: -1%	G: 0.4%
O=C(CSc1ncn(-c2ccccc2)n1)N1CCN(c2ccccc2)CC1
  A: 0	B: 10%	C: -4	D: 1.8	E: -27%	F: ?	G: 0.1%
Cc1ccc(OCC(=O)N/N=C\c2cccs2)c([N+](=O)[O-])c1
  A: 1	B: -10%	C: ?	D: 6.3	E: 6%[15.4 µM]	F: -1%	G: .
CCc1nc(N2CCN(C(=O)CCCl)CC2)c2c3c(sc2n1)CCCC3
  A: -8	B: .	C: .	D: .	E: 1%	F: .	G: -1.8%
C[C@H](NC(=O)c1ccco1)C(=O)N1CCCC1
  A: 0	B: 9%	C: 20	D: 3.4	E: -2%	F: -2%	G: .
CC(C)(C)NC(=O)C(c1ccncc1)N(Cc1cccs1)C(=O)c1csnn1 (stereo not given)
  A: 10	B: 4%	C: 6	D: 9.6	E: -1%[15.4 µM]	F: -9%	G: .
CCCC[n+]1ccn(C2=C([O-])c3ccccc3C(=O)/C2=N\S(=O)(=O)c2ccccc2)c1
  A: -6	B: -13%	C: -2	D: 0.9	E: -6%	F: 14%	G: 0.5%
COc1cccc(CNC(=O)C(NS(=O)(=O)c2ccc3c(c2)CCN3C(C)=O)C(C)C)c1 (stereo not given)
  A: -19	B: 8%	C: -12	D: .	E: -21%	F: -1%	G: 1.2%
c1ccc(CN2CCC3CC2c2ccc(N4CCOCC4)cc23)cc1 (stereo not given)
  A: 0	B: .	C: .	D: .	E: ?	F: .	G: -3.1%
Cc1cc(Nc2ccccc2Cl)c2ccccc2n1
  A: -6	B: -8%	C: .	D: .	E: 29%[15.4 µM]	F: .	G: .
Cc1ccc(-c2cc3nc(-c4ccccc4)cc(N4CCC5(CC4)OCCO5)n3n2)cc1
  A: 40	B: 12%	C: 6	D: 5.0	E: 33%	F: 5%	G: 7.1µM*
COC(=O)C1=C(C)N(Cc2ccccc2)C(=NCc2cc(OC)c(OC)c(OC)c2)N[C@H]1c1cccc(F)c1
  A: -3	B: -1%	C: -18&26	D: 4.3&0.1	E: .	F: -12%&4%	G: -4.0%
O=c1sc2ccccc2c(N2CCN(c3ccccc3)CC2)c1[N+](=O)[O-]
  A: -3	B: 16%	C: 5	D: 7.8	E: 13%[15.4 µM]	F: -15%	G: -0.4%
COCCNC(=O)CN1CCC(NC(=O)Nc2ccccc2)CC1
  A: -1	B: 2%	C: 3	D: 1.3	E: ?	F: 16%	G: 3.4%
CC(C)C(C(=O)Nc1nccs1)N1C(=O)c2ccccc2C1=O (stereo not given)
  A: 0	B: 9%	C: 6	D: -0.4	E: 7%[15.4 µM]	F: 8%	G: .
Cc1sc2nc(CN(Cc3cccs3)C(=O)NC3CCCCC3)[nH]c(=O)c2c1C
  A: -15	B: -19%	C: -5	D: 1.7	E: 0%	F: 2%	G: -2.8%
CC(=O)c1ccccc1Oc1nc(CN2CCOCC2)nc2scc(-c3cccs3)c12
  A: -1	B: -6%	C: 24	D: ?	E: 11%	F: ?	G: -0.4%

Structures shown so far with a Cl atom, in the order listed:
Letter code – A = CtBP-E1A inh; B = gsp antag; C = TRPV1 PAM; D = Menin MLL FP FL; E = gsp agonist; F = Sfp inh; G = ClpP mod
COc1ccc(N)cc1S(=O)(=O)Nc1ccccc1Cl
  A: 0	B: 4%	C: -8	D: -0.4	E: 12%[15.4 µM]	F: 6%	G: .
Cc1onc(-c2ccccc2Cl)c1C(=O)N1CCOC12CCCCC2
  A: 4	B: 3%	C: -4	D: 0.3	E: ?	F: 23%	G: .
Clc1ccc(N2CCN(c3nc4nonc4nc3N3CCSCC3)CC2)nc1
  A: -3	B: 4%	C: 28	D: 21	E: -13%[15.4 µM]	F: 10%	G: .
CCc1nc(N2CCN(C(=O)CCCl)CC2)c2c3c(sc2n1)CCCC3
  A: -8	B: .	C: .	D: .	E: 1%	F: .	G: -1.8%
Cc1cc(Nc2ccccc2Cl)c2ccccc2n1
  A: -6	B: -8%	C: .	D: .	E: 29%[15.4 µM]	F: .	G: .

Arranged by the number under Sfp inh (low to high): 3 from the list above
compound	CtBP-E1A inh	Menin MLL FP FL	gsp agonist	Sfp inh
Cc1ccc(OCC(=O)N/N=C\c2cccs2)c([N+](=O)[O-])c1	1	6.3	6%[15.4 µM]	-1%
Cc1ccc(-c2cc3nc(-c4ccccc4)cc(N4CCC5(CC4)OCCO5)n3n2)cc1	40	5.0	33%	5%
CC(C)C(C(=O)Nc1nccs1)N1C(=O)c2ccccc2C1=O (stereo not given)	0	-0.4	7%[15.4 µM]	8%

Source: PubChem BioAssay (National Center for Advancing Translational Sciences (NCATS))
